# Screens as filed in PubChem BioAssay.
# DUX4 inh: inhibitors of DUX4-driven ZSCAN4 reporter expression, primary screen, 293T cells, Gaussia and Italica luciferase; 293T-iDUX4 ZSCAN4-Gaussia luciferase reporter, 24 h; hits give low values; activity change, negative = inhibition, % (concentration not given with the values); hit rate 0.8% among 37,000;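 active = -10% or lower and over 25 points stronger than a control reporter; inconclusive = -10% or lower with a smaller gap; inactive = above -10%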;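 note: 0% = median of neutral control wells and -100% = median of positive control wells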
# DUX4 inh difference: further read-out of DUX4 inh, marked with its call; Gaussia minus Italica difference, %; measured here: selective DUX4 reporter inhibition;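 worked out from the two reporters; negative = selective loss of the DUX4 reporter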
# DUX4 inh control: also measured in DUX4 inh; calls as there; activity change, negative = inhibition, %; measured here: Italica tet-on control reporter;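 0 = neutral control and -100 = positive control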
# Numbers without * were called inactive; ? = inconclusive; / = not tested or not shown; ! = not confirmed by another sample.
no.	SMILES	DUX4 inh	DUX4 inh difference	DUX4 inh control
1	CO[C@@H]1CN(C)C(=O)c2ccc(NC(=O)Nc3c(C)noc3C)cc2OC[C@@H](C)N(CCC(F)(F)F)C[C@H]1C	-1.6	-1.6	0.0
2	CC(=O)N1CC2(C1)[C@H](c1ccccc1)[C@H](CO)N2C(=O)c1ccncc1	10.6	1.8	8.8
3	O=C(C[C@H]1CC[C@H](NC(=O)c2ccc3c(c2)OCO3)[C@H](CO)O1)NCc1ccc(Oc2ccccc2)cc1	?	/	/
4	COc1ccccc1CNC(=O)C[C@H]1CC[C@H]2[C@@H](COC[C@@H](O)CN2C(=O)Nc2ccc(F)cc2)O1	-2.5	-11.7	9.3
5	CC(=O)N1[C@H](CO)[C@H](c2ccccc2)C12CN(C(=O)CN1CCOCC1)C2	1.0	-3.1	4.1
6	C[C@H](NC(=O)C[C@@H]1CC[C@@H](NC(=O)Cc2ccccn2)[C@H](CO)O1)c1ccccc1	0.1	-6.9	6.9
7	O=C(Nc1cccc(Cl)c1)N1C[C@H]2[C@@H](c3ccccc31)[C@H](CO)N2Cc1ccccc1Cl	-2.1	-3.4	1.4
8	C[C@H](NC(=O)C[C@@H]1C[C@@H]2c3cc(NC(=O)c4cccnc4)ccc3O[C@@H]2[C@H](CO)O1)c1ccccc1	-4.6	-16.3	11.7
9	CNC[C@H]1Oc2cc(-c3cccnc3)ccc2S(=O)(=O)N([C@H](C)CO)C[C@@H]1C	1.9	-3.6	5.5
10	CCCN(C)C[C@H]1Oc2ncc(C#CCN(C)C)cc2C(=O)N([C@@H](C)CO)C[C@H]1C	-0.9	-3.2	2.3
11	C[C@@H](NC(=O)C[C@H]1C[C@H]2c3cc(NS(C)(=O)=O)ccc3O[C@H]2[C@H](CO)O1)c1ccccc1	5.0	-2.6	7.6
12	CCCNC(=O)N1C[C@H](C)[C@H](OC)CN(C)C(=O)c2cc(NS(C)(=O)=O)ccc2OC[C@@H]1C	-0.7	-2.6	1.9
13	CCN1[C@H](C(=O)NCc2ccccn2)[C@@H](CO)[C@@H]2Cn3c(ccc(C4=CCCC4)c3=O)[C@@H]21	-1.6	-4.9	3.3
14	COc1ccc(C#Cc2ccc([C@H]3[C@H]4CN(S(=O)(=O)c5ccccc5)CCCCN4[C@H]3CO)cc2)cc1	-3.6	1.8	-5.5
15	Cn1cnc(S(=O)(=O)N2C[C@H](O)COC[C@@H]3O[C@@H](CC(=O)NCc4cc(F)cc(F)c4)CC[C@H]32)c1	9.9	-6.0	15.9
16	CCS(=O)(=O)Nc1ccc2c(c1)C(=O)N(C)C[C@H](OC)[C@H](C)CN(CC1CCCCC1)[C@H](C)CO2	-8.8	-9.3	0.4
17	CO[C@@H](CN(C)Cc1nccs1)[C@@H](C)CN([C@@H](C)CO)S(=O)(=O)c1ccc(F)cc1	1.1	4.8	-3.7
18	COc1cccc(NC(=O)N(C)C[C@@H]2OCc3ccccc3-c3ccccc3C(=O)N([C@H](C)CO)C[C@H]2C)c1	5.4	5.1	0.3
19	O=C(C[C@@H]1CC[C@H]2[C@@H](COC[C@H](O)CN2C(=O)Nc2ccc(Cl)cc2)O1)NCc1ccncn1	13.1	8.9	4.2
20	O=C(Nc1ccc(F)cc1)Nc1ccc2c(c1)[C@H]1C[C@H](CC(=O)N3CCOCC3)O[C@H](CO)[C@H]1O2	0.6	-2.5	3.1
21	CN(C)C(=O)c1ccc(-c2ccc(C3[C@@H]4CN(Cc5ccc6c(c5)OCO6)C[C@H]3N4)cc2)cc1 (stereo partly specified)	-29.7*!	-36.5*	6.8*
22	O=C(C[C@@H]1CC[C@H]2[C@@H](COC[C@@H](O)CN2Cc2cc(F)ccc2F)O1)NCc1ccc(Oc2ccccc2)cc1	?	/	/
23	O=C(c1cnccn1)N1C[C@H]2[C@@H](c3ccccc31)[C@@H](CO)N2CC1CCCC1	-0.7	11.1	-11.8
24	CC(C)(C)[S@](=O)N1Cc2cc(C(=O)NCc3ccccc3F)nc(-c3cccc(-c4cncnc4)c3)c2[C@@H]1CCO	-3.2	-2.8	-0.4
25	O=C(Nc1cccc(F)c1)N1C[C@@H]2N[C@H](C1)C2c1ccc(-c2ccccc2F)cc1 (stereo partly specified)	?	4.9	-13.8
26	Cc1noc(C)c1S(=O)(=O)Nc1ccc2c(c1)C(=O)N([C@H](C)CO)C[C@H](C)[C@@H](CN(C)C(=O)c1ccncc1)OCCCC[C@H](C)O2	2.6	0.5	2.1
27	O=C(C[C@H]1C[C@H]2c3cc(NS(=O)(=O)c4ccc(F)cc4)ccc3O[C@H]2[C@H](CO)O1)NCc1cccnc1	0.3	-1.3	1.6
28	CCOC(=O)c1cc2c(c(-c3cccc(Br)c3)n1)[C@@H](CCO)N(C(=O)NC(C)C)C2	-4.7	-7.0	2.2
29	CO[C@H]1CN(C)C(=O)c2ccc(NC(=O)Nc3ccccc3)cc2OC[C@@H](C)N(C(=O)CC2CC2)C[C@H]1C	-4.7	-2.2	-2.5
30	CCCNC(=O)N1[C@H](C#N)[C@@H](c2ccc(-c3cccnc3)cc2)[C@H]1CO	-3.0	2.2	-5.2
31	COCC(=O)N1CC(=O)N2[C@H](CO)[C@H](c3ccc(C4=CCCC4)cc3)[C@@H]2C1	20.3	9.3	11.0
32	C[C@H]1CN([C@@H](C)CO)C(=O)c2ccccc2-c2ccccc2CO[C@@H]1CN(C)Cc1cccnc1	-1.3	-10.1	8.9
33	O=C(Nc1ccc(C(F)(F)F)cc1)N[C@@H]1C=C[C@@H](CC(=O)N2CCCCC2)O[C@H]1CO	?	/	/
34	CO[C@@H](CN(C)C(=O)c1cc(Cl)cc(Cl)c1)[C@H](C)CN(C(=O)Nc1ccc(F)cc1)[C@@H](C)CO	5.5	0.8	4.7
35	N#C[C@@H]1[C@H](c2ccc(C#CC3CCCC3)cc2)[C@H](CO)N1S(=O)(=O)c1ccccc1	-2.3	-0.2	-2.1
36	C[C@H]1CN([C@@H](C)CO)C(=O)c2cccc(NC(=O)C3CCOCC3)c2O[C@H]1CN(C)S(=O)(=O)c1cn(C)cn1	-3.1	0.1	-3.1
37	O=C(CN1CCOCC1)NCC[C@@H]1CC[C@H](NC(=O)c2ccc3c(c2)OCO3)[C@@H](CO)O1	-0.2	1.2	-1.4
38	COc1ccc(NC(=O)Nc2ccc3c(c2)[C@H]2C[C@H](CC(=O)NCc4ccccc4F)O[C@H](CO)[C@H]2O3)cc1	-3.5	-7.3	3.8
39	COCC#Cc1ccc2c(c1)O[C@H](CN(C)C(=O)C1CCOCC1)[C@H](C)CN([C@H](C)CO)S2(=O)=O	-2.1	1.4	-3.5
40	CNC[C@H]1OCCCC[C@@H](C)Oc2ccc(NC(=O)Nc3cccc4ccccc34)cc2C(=O)N([C@@H](C)CO)C[C@H]1C	-1.3	-3.4	2.1
41	C[C@@H](NC(=O)C[C@H]1C=C[C@H](NC(=O)c2cccnc2)[C@H](CO)O1)c1ccccc1	-1.8	-1.8	0.0
42	COCC#Cc1cnc2c(c1)C(=O)N([C@@H](C)CO)C[C@H](C)[C@H](CN(C)Cc1ccc(-c3ccccc3)cc1)O2	-0.3	-2.3	2.0
43	COC(=O)C[C@@H]1CC[C@H]2[C@@H](COc3ccc(NC(=O)c4ccc(F)c(F)c4)cc3C(=O)N2C)O1	0.2	1.8	-1.6
44	O=C(C[C@@H]1C=C[C@H](NC(=O)Cc2cccnc2)[C@H](CO)O1)Nc1ccc(-c2ccccc2)cc1	-2.6	0.9	-3.5
45	O=C(Nc1ccccc1)N1C[C@H]2[C@@H](c3ccccc31)[C@H](CO)N2C(=O)c1cccnc1	2.2	0.9	1.3
46	CN1CCN(C(=O)C[C@H]2CC[C@H]3[C@@H](COC[C@H](O)CN3C(=O)Nc3ccc4c(c3)OCO4)O2)CC1	1.3	-2.0	3.3
47	CCC(=O)N1CCCCN2[C@@H](CO)[C@@H](c3ccc(-c4cccc(C#N)c4)cc3)[C@@H]2C1	15.5	8.2	7.2
48	CC(C)(C)[S@](=O)N1Cc2cc(C(=O)NCC(F)(F)F)nc(-c3cccc(-c4cccc(F)c4)c3)c2[C@@H]1CCO	-2.4	0.0	-2.4
49	CCN1[C@@H]2c3ccc(-c4ccccc4)c(=O)n3C[C@H]1[C@H](CO)[C@H]2C(=O)Nc1ccccc1	1.9	0.0	1.9
50	CO[C@H]1CN(C)C(=O)c2ccc(NC(=O)CC(F)(F)F)cc2OC[C@H](C)N(C(=O)C2CCOCC2)C[C@@H]1C	7.7	3.2	4.5

# The list goes on:
no.	SMILES	DUX4 inh	DUX4 inh difference	DUX4 inh control
51	CCCC(=O)N1CC2(CCN(Cc3cccnc3)CC2)c2c([nH]c3cc(OC)ccc23)[C@H]1CO	16.5	11.2	5.3
52	COc1cccc(S(=O)(=O)Nc2ccc3c(c2)C(=O)N(C)[C@@H]2CC[C@@H](CC(=O)NCC4CCCCC4)O[C@@H]2CO3)c1	2.2	3.2	-1.0
53	CC[C@H]1C/C=C\C[C@@H](C(C)C)NC(=O)CCC(=O)N1	-8.3	-5.9	-2.4
54	COc1cccc(S(=O)(=O)Nc2ccc3c(c2)C(=O)N(C)[C@H]2CC[C@@H](CC(=O)NCC4CCCCC4)O[C@H]2CO3)c1	-1.5	-0.8	-0.7
55	CCCN1[C@@H]2Cn3c(ccc(-c4cccnc4)c3=O)[C@H]1[C@@H](C(=O)NCCc1cn(C)cn1)[C@@H]2CO	-5.7	-3.0	-2.8
56	COc1ccc(C#Cc2ccc3c(c2)[C@H]2[C@H](CCN2C(=O)CC2CC2)[C@H](CO)N3)cc1	6.0	-4.4	10.4
57	CCCNC(=O)N1CC(=O)N2[C@H](C1)[C@H](c1ccc(-c3ccncc3)cc1)[C@@H]2CO	8.7	-4.1	12.8
58	COCCNC(=O)[C@@H]1[C@@H](CO)[C@@H]2Cn3c(ccc(C4=CCCCC4)c3=O)[C@H]1N2Cc1cocn1	5.6	10.6	-4.9
59	CO[C@@H]1CN(C)C(=O)c2ccc(NC(=O)c3ccno3)cc2OC[C@H](C)N(S(C)(=O)=O)C[C@@H]1C	-0.5	-3.4	2.9
60	O=C(Cc1ccccn1)N1CC2(C1)[C@@H](c1ccccc1)[C@@H](CO)N2C(=O)c1cccnc1	5.6	6.6	-1.0

# A different layout for some results above:
# Results follow in this order: DUX4 inh	DUX4 inh difference	DUX4 inh control
52. COc1cccc(S(=O)(=O)Nc2ccc3c(c2)C(=O)N(C)[C@@H]2CC[C@@H](CC(=O)NCC4CCCCC4)O[C@@H]2CO3)c1
→ 2.2	3.2	-1.0
53. CC[C@H]1C/C=C\C[C@@H](C(C)C)NC(=O)CCC(=O)N1
→ -8.3	-5.9	-2.4
54. COc1cccc(S(=O)(=O)Nc2ccc3c(c2)C(=O)N(C)[C@H]2CC[C@@H](CC(=O)NCC4CCCCC4)O[C@H]2CO3)c1
→ -1.5	-0.8	-0.7
55. CCCN1[C@@H]2Cn3c(ccc(-c4cccnc4)c3=O)[C@H]1[C@@H](C(=O)NCCc1cn(C)cn1)[C@@H]2CO
→ -5.7	-3.0	-2.8
56. COc1ccc(C#Cc2ccc3c(c2)[C@H]2[C@H](CCN2C(=O)CC2CC2)[C@H](CO)N3)cc1
→ 6.0	-4.4	10.4

# (more compounds)
no.	SMILES	DUX4 inh	DUX4 inh difference	DUX4 inh control
61	O=C(c1cnccn1)N1CC(=O)N2[C@H](CO)[C@H](c3ccc(-c4ccccc4)cc3)[C@@H]2C1	7.8	-2.3	10.1
62	C/C=C/c1ccc([C@@H]2[C@H](CO)N(C(=O)CN(C)C)C23CN(C(=O)C2CCCCC2)C3)cc1	8.8	6.2	2.6
63	N#Cc1ccc(-c2ccc3c(c2)[C@H]2[C@H](CCN2C(=O)C2CCCCC2)[C@@H](CO)N3)cc1	?	/	/
64	CCCNC(=O)C[C@H]1CC[C@H]2[C@@H](COC[C@H](O)CN2C(=O)Nc2cccc(Cl)c2)O1	-0.6	1.5	-2.1
65	COc1ccc2c3c([nH]c2c1)[C@H](CO)N(Cc1ccccc1)CC31CN(C(C)=O)C1	?	/	/
66	O=C(C[C@H]1CC[C@@H]2[C@H](COC[C@@H](O)CN2Cc2cc(F)ccc2F)O1)N[C@@H]1CCN(Cc2ccccc2)C1	-3.7	1.2	-4.9
67	C/C=C/c1cnc2c(c1)C(=O)N([C@H](C)CO)C[C@@H](C)[C@H](CN(C)C(=O)NC1CCCC1)O2	1.4	1.2	0.2
68	COc1ccc(NC(=O)Nc2ccc3c(c2)[C@@H]2C[C@H](CC(=O)N[C@@H](C)c4ccccc4)O[C@@H](CO)[C@@H]2O3)cc1	0.0	-2.0	2.0
69	CC=Cc1ccc2n(c1=O)C[C@H]1[C@H](CO)[C@@H](C(=O)NCC3CCCCC3)[C@@H]2N1C(=O)CC (mixture of isomers)	0.2	-0.5	0.7
70	CO[C@H]1CN(C)C(=O)c2ccc(NC(=O)Nc3ccccc3F)cc2OC[C@@H](C)N(Cc2ccccc2C(=O)O)C[C@@H]1C	1.7	2.3	-0.6
71	COc1cccc(C#Cc2ccc([C@H]3[C@@H](CO)N4C(=O)CN(C(=O)Cc5ccccc5)C[C@H]34)cc2)c1	?	/	/
72	COCC(=O)N1[C@H](CO)[C@H](c2ccc(-c3ccccc3)cc2)C12CN(C(C)=O)C2	-0.1	-2.7	2.6
73	COCC(=O)N1C[C@H]2[C@@H](c3ccccc31)[C@@H](CO)N2C(=O)c1ccncc1	2.5	-0.1	2.5
74	CC(=O)N1CC2(C1)[C@H](c1ccc(-c3cccc(F)c3)cc1)[C@@H](CO)N2CC1CC1	2.5	2.2	0.3
75	COc1cccc(C#Cc2ccc3c(c2)[C@@H]2[C@@H](CCN2S(=O)(=O)c2ccccc2)[C@H](CO)N3)c1	1.2	-17.3	18.5
76	COc1cccc(-c2cn(CC[C@@H]3CC[C@@H](NC(=O)CN(C)C)[C@@H](CO)O3)nn2)c1	0.4	3.6	-3.2
77	C[C@H](CO)N1C[C@H](C)[C@H](CN(C)Cc2cccc(C(F)(F)F)c2)OCc2ccccc2-c2ccccc2C1=O	?	/	/

# These rows are one share of the data (hit frequency here may not be typical).
